KCNQ2 inh: KCNQ2 potassium channel inhibitors, primary screen, cell-based, CHO-K1, FluxOR thallium flux, B-score (AID 2156). O88943. 20 min; active compounds read low; only compounds with negative scores are shown here; some inactives read as strong as hits. B-score at 10 µM. 310,000 tested, 1.1% active;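 active means fluorescence ratio B-score at most minus 3 library SDs, with starting brightness B-score within 2 library SDs, cut at about -5.5 in these data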
Target sequence (O88943 whole entry, looked up): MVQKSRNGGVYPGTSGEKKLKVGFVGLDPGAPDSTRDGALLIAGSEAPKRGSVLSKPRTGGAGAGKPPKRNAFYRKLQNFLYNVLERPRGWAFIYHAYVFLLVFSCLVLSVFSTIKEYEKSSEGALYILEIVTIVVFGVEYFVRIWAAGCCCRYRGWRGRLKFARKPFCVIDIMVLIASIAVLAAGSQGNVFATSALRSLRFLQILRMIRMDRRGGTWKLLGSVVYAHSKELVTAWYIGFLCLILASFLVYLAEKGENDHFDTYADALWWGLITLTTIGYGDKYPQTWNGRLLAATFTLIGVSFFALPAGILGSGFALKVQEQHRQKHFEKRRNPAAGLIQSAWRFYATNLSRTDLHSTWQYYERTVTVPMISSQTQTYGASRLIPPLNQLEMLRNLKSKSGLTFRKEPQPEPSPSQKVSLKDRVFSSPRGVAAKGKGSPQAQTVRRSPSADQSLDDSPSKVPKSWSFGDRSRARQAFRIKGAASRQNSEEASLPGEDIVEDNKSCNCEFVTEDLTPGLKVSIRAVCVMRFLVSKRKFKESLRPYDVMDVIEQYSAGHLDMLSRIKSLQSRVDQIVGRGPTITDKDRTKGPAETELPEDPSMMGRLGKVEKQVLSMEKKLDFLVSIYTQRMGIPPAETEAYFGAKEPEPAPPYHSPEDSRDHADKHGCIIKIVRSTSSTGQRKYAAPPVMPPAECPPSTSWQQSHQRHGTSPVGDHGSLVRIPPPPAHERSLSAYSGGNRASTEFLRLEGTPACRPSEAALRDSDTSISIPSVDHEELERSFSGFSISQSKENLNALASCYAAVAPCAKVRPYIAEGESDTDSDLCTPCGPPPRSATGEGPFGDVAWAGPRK
KCNQ2 inh baseline: second read-out of KCNQ2 inh, no call of its own (marks repeat the call); B-score; measured here: initial fluorescence intensity artifact check;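 brightness before thallium and not channel activity; 0 = typical well and far values either way flag optical interference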
* = called active by the depositor; i = inactive. An excerpt. The share of hits here may be higher or lower than overall.

cpd	Compound	KCNQ2 inh	KCNQ2 inh baseline
1	Cc1cc(C(=O)N2CCC(Cc3ccccc3)CC2)c(C)o1	i	0.71
2	O=C(c1ccc(N2CCN(C(=O)c3ccc(F)c(F)c3)CC2)cc1)c1cccc(F)c1	i	0.18
3	Cc1ccc(OCC(=O)c2cc(C)n(CC(F)(F)F)c2C)c([N+](=O)[O-])n1	i	1.6
4	O=C(CN1C(=O)COc2ccccc21)NCCCN1CCc2ccccc2C1	i	2.9
5	COc1ccccc1-c1nc(C#N)c(NCCCn2ccnc2)o1	i	6.6
6	CCCn1c(SCC(=O)C(C)(C)C)nc2ccccc21	i	-3.2
7	O=C(Nc1ccc2c(c1)OCO2)c1cccc(S(=O)(=O)N2CCOCC2)c1	i	-1.1
8	Cc1ccc2[nH]c(=O)c(-c3nc4c(C)cccn4c3NCc3ccco3)cc2c1	i	-0.36
9	O=C(CCC1CCCN(C2C3CC4CC(C3)CC2C4)C1)NCc1ccc(F)c(F)c1 (stereo unspecified)	i	0.62
10	CN1C(=O)NC(c2ccccc2[N+](=O)[O-])C2=C1CC(C)(C)CC2=O (stereo unspecified)	i	2.6

Following part
cpd	Compound	KCNQ2 inh	KCNQ2 inh baseline
11	O=C(NCCN1C(=O)C2C3C=CC(C3)C2C1=O)NCc1ccccc1 (stereo unspecified)	i	-0.11
12	CCOC(=O)C1(Cc2ccccc2)CCN(Cc2ccc3cc(NC(C)=O)ccc3n2)CC1	i	-0.49
13	COc1ccc(-c2nnn(CC(=O)N(CCCO)C(C(=O)NC3CCCC3)c3ccc(F)cc3)n2)cc1 (stereo unspecified)	i	2.4
14	NC(=O)CCC(NS(=O)(=O)c1ccc(Cl)cc1)C(=O)NCc1ccc(Cl)cc1 (stereo unspecified)	i	2.3
15	Cc1ccc(N=C2NC(=O)C(CC(=O)NCc3ccccc3)S2)cc1C (stereo unspecified)	i	-0.55
16	Cc1cc(NC(=O)CS(=O)CC(=O)Nc2c(C)cccc2C)ccc1-n1cnnn1 (stereo unspecified)	i	-0.81
17	NS(=O)(=O)c1ccc(NC(=O)Nc2ccc3c(c2)OCO3)cc1	i	0.11
18	O=C(Nc1c(C(=O)NCc2ccco2)cnn1-c1ccccc1)c1ccc(F)cc1	i	0.78
19	CCOC(=O)c1c(NC(=O)CSc2nnc(-c3ccco3)o2)sc(C)c1C	i	0.18
20	COc1cccc(CNC(=O)Cn2cccc2)c1	i	0.19

Continuation.
cpd	Compound	KCNQ2 inh	KCNQ2 inh baseline
21	O=C1c2oc3ccc(Cl)cc3c(=O)c2C(c2cccc(Br)c2)N1CCO (stereo unspecified)	-11*	0.09*
22	CCOC(=O)C1=C(C)N(C)C(=S)N(C)C1c1ccc(OC)cc1 (stereo unspecified)	i	0.52
23	Cc1cc(C)nc(N2CCN(c3ccc(F)cc3)CC2)n1	i	-0.66
24	O=C(NNC(=O)C1CCC1)c1ccc(Cl)cc1	i	0.38
25	CCN(CC)C(=S)SSC(=S)N(CC)CC	i	0.72
26	Cc1ccc(NC(=S)N2CCC(NC(=O)C3CCCCC3)CC2)cc1C	i	0.82
27	CN(Cc1nc(-c2ccc(Cl)cc2)no1)C(=O)c1ccco1	i	-0.01
28	CCC(C)(C)n1nnnc1C(c1cc2ccc(OC)cc2[nH]c1=O)N1CCCCC1 (stereo unspecified)	i	-0.15
29	O=C(O)c1cc(-c2ccc3c(c2)OCCO3)n[nH]1	i	-0.91
30	O=[N+]([O-])c1cc(C(F)(F)F)ccc1NCCOc1ccccc1	i	2.4

Following part:
cpd	Compound	KCNQ2 inh	KCNQ2 inh baseline
31	COc1ccc2[nH]c3c(c2c1)CCN1C(=O)N([C@@H](C)C(=O)NCc2ccc(F)cc2)C(=O)[C@]31C	i	-0.71
32	Cc1ccc(NC(=O)CCN2C(=O)C3C4CCC(C4)C3C2=O)cc1[N+](=O)[O-] (stereo unspecified)	i	0.08
33	Cc1nc(NC(=O)CSc2nnc(C3CC3)n2C)sc1C	i	0.39
34	COc1ccc(-n2c(=O)c3c(C)c(C)sc3n(Cc3ccc(F)cc3)c2=O)c(OC)c1	i	-0.61
35	CN(C)c1ccc(-c2ccc3c(=O)c4ccccc4n(C)c3c2)cn1	i	3.7
36	COc1ccc(/C=C(\NC(=O)c2ccc(C)cc2)C(=O)N2CCCCC2)cc1	i	0.05
37	CN(CC(O)Cn1c2ccccc2c2ccccc21)S(C)(=O)=O (stereo unspecified)	i	0.26
38	CCOc1ccc(NC(=O)CCc2c(C)nn(-c3ccc(N4CCCCC4)nn3)c2C)cc1	i	1.9
39	CCOC(=O)CC(c1ccc(N)cc1)n1c(C)ccc1C (stereo unspecified)	i	0.02
40	O=S(=O)(c1ccc(Br)s1)n1cccn1	i	1.6

Next structures:
cpd	Compound	KCNQ2 inh	KCNQ2 inh baseline
41	Cc1c(C(=O)Nc2ccccc2)csc1-c1ccccc1	i	1
42	C/C(=N\NC(=O)Cn1nc(C)cc1C)c1ccc([N+](=O)[O-])cc1	i	0.06
43	Cc1cnc(CN2CCc3c([nH]c4ccccc34)C2CC(C)C)[nH]1 (stereo unspecified)	i	-1.2
44	COc1ccccc1CNC(=O)C(C)c1ccc([N+](=O)[O-])cc1 (stereo unspecified)	i	-1
45	CC(=O)NCCc1nc2cc(NC(=O)c3ccc(F)cc3)ccc2n1C	i	-1.5
46	COc1ccc(-n2nc(C(=O)NCC(=O)NCCC3=CCCCC3)c3ccccc3c2=O)cc1	i	0.58
47	CC(C)CC(=O)/C(=C\c1ccc(Cl)cc1Cl)n1cncn1	-5.6*	2*
48	Cc1ccc(C(=O)N[C@H](C(=O)OCc2cc(=O)n3c(n2)sc2ccccc23)C(C)C)cc1	i	0.58
49	COc1ccc(CNC(=O)CCOc2ccc(C(C)(C)C)cc2)cc1	i	-0.18
50	CCCC1(C)SC(NC(C)=O)=NN1C(C)=O (stereo unspecified)	i	1.6

Later entries:
cpd	Compound	KCNQ2 inh	KCNQ2 inh baseline
51	O=C(CSc1nc2ccccc2s1)Nc1ccc(N2CCOCC2)c(Cl)c1	i	-1.1
52	Cc1cc(C)nc(N/N=C/c2cccc3ccccc23)n1	i	-0.6
53	CCN1C(=O)C(CC(=O)Nc2ccc(F)cc2)N(Cc2cccs2)C1=S (stereo unspecified)	i	-1.7
54	Cc1cccc(NC(=O)c2cc(S(=O)(=O)N(C)c3ccc(F)cc3)ccc2Cl)n1	i	-0.81
55	CC1(c2nnc(Cc3ccccc3)o2)CC(c2ccccc2[N+](=O)[O-])=NO1 (stereo unspecified)	i	1.1
56	CN(C)C(=S)Nc1ccc(Cc2ccncc2)cc1	i	-0.32
57	Cc1cnc(CN(C)C(=O)CC2C(=O)NCCN2Cc2cccc(F)c2F)[nH]1 (stereo unspecified)	i	1.6
58	COc1cccc(CNC(=O)COC(=O)CCCNC(=O)c2ccc(Cl)cc2)c1	i	-0.09
59	CC(C)CN1CCN(Cc2cc(F)ccc2-n2cccn2)CC1CCO (stereo unspecified)	i	-1.2
60	O=C(O)COc1ccccc1/C=N/NC(=O)C(O)c1ccccc1 (stereo unspecified)	i	-1.8

A second format for part of the listing above.
Values run as follows: KCNQ2 inh	KCNQ2 inh baseline
54: Cc1cccc(NC(=O)c2cc(S(=O)(=O)N(C)c3ccc(F)cc3)ccc2Cl)n1
→ i	-0.81
55: CC1(c2nnc(Cc3ccccc3)o2)CC(c2ccccc2[N+](=O)[O-])=NO1 (stereo unspecified)
→ i	1.1
56: CN(C)C(=S)Nc1ccc(Cc2ccncc2)cc1
→ i	-0.32
57: Cc1cnc(CN(C)C(=O)CC2C(=O)NCCN2Cc2cccc(F)c2F)[nH]1 (stereo unspecified)
→ i	1.6
58: COc1cccc(CNC(=O)COC(=O)CCCNC(=O)c2ccc(Cl)cc2)c1
→ i	-0.09
59: CC(C)CN1CCN(Cc2cc(F)ccc2-n2cccn2)CC1CCO (stereo unspecified)
→ i	-1.2

Later entries.
cpd	Compound	KCNQ2 inh	KCNQ2 inh baseline
61	O=S1(=O)[C@H]2C[C@@H]3C=C[C@@]2(CN1Cc1ccc(F)cc1)O3	i	0.09
62	CC(NC(=O)Cc1ccsc1)c1ccc(F)cc1 (stereo unspecified)	i	-0.12
63	CCOc1ccc(NC(=O)c2ccccc2OC)cc1	i	-0.84
64	CN(Cc1ccc(F)cc1)C(=O)c1ccc2c(c1)NC(=O)CS2	i	1.6
65	C(=N\Nc1nc(-c2ccccc2)cs1)/c1cccnc1	i	-1.4
66	COc1ccccc1Oc1ccc(-c2cnc3ccccc3n2)cc1[N+](=O)[O-]	i	2.2
67	COc1ccc(Cl)cc1NC(=O)c1noc(C)c1[N+](=O)[O-]	i	0.17
68	O=C(CSc1ccc(-c2ccccn2)nn1)N1CCCc2ccccc21	i	-0.35
69	O=c1[nH]c2cc3c(cc2cc1CN(CC1CCCO1)S(=O)(=O)c1ccccc1)OCCO3 (stereo unspecified)	i	-1
70	O=C(NCC(=O)N1CCCC1)c1ccc(Cl)cc1	i	-0.34

Following part
cpd	Compound	KCNQ2 inh	KCNQ2 inh baseline
71	Cc1c(NC(=O)CN2C(=O)C(=O)c3ccccc32)c(=O)n(-c2ccccc2)n1C	i	1.2
72	COC(=O)CSc1nc(NCC(C)C)nc(N2CCOCC2)n1	i	0.86
73	Cc1ccc(-c2csc(N(CCCN3CCOCC3)C(=O)c3ccco3)n2)cc1	i	-0.03
74	O=C(CCC(=O)OCC(=O)c1cccc([N+](=O)[O-])c1)Nc1cccc(Cl)c1Cl	i	0.51
75	O=S(=O)(c1ccc(Cl)cc1)N1CCN(c2ncccn2)CC1	i	-0.23
76	Cc1[nH]nc(-c2ccc(OCc3cnn(-c4ccccc4)c3)cc2O)c1Oc1ccc(Cl)cc1	i	-0.21
77	Cc1cc(Cl)c(S(=O)(=O)N2CC(C)OC(C)C2)cc1OCC(N)=O (stereo unspecified)	i	1.8
78	O=C(O)CCCC(=O)Nc1ccccc1C(=O)N1CCCC1	i	0.65
79	COc1cc2ccccc2cc1C(=O)NC(=S)Nc1cc(C(=O)O)ccc1C	i	-0.96
80	O=C(CSCc1ccccc1Br)NNC(=S)NCc1ccco1	i	-1.6

The listing continues.
cpd	Compound	KCNQ2 inh	KCNQ2 inh baseline
81	Cc1ccsc1/C=N/NC(=O)CSCc1ccc(Cl)cc1	i	-0.06
82	Cc1cc(O)ccc1N1C(=O)c2cccc3cc([N+](=O)[O-])cc(c23)C1=O	i	1.8
83	CCN(CC(=O)N1CCCC1)S(=O)(=O)c1cc(C)ccc1OC	i	-0.79
84	COc1ccc(CCn2c(C3CCCCC3)nc3c(c(=O)c4ccccc4n3C)c2=O)cc1	i	-0.32
85	COc1ccc(C(=O)NCc2ccco2)cc1S(=O)(=O)N1CCOCC1	i	0.18
86	CCCn1c(Nc2nc3ccccc3n2C)nc2ccccc21	i	-3.9
87	COc1cccc(CC(NC(C)=O)C(=O)NC2CCN(C(=O)Nc3ccc(C)cc3)CC2)c1 (stereo unspecified)	i	-2.4
88	O=C(CCc1ccccc1)Nc1nnc(-c2ccc3c(c2)OCCO3)o1	i	0.2
89	CCCCCC(=O)N1CCCC1	i	1.9
90	CN1CCN(c2ccc(S(=O)(=O)N3CCCCC3)cc2NC(=O)c2cccc([N+](=O)[O-])c2)CC1	i	7.5

Other entries.
cpd	Compound	KCNQ2 inh	KCNQ2 inh baseline
91	Cc1cccc(C)c1OCC(=O)Nn1c(=O)[nH]c2ccccc2c1=O	i	-0.65
92	O=C(COc1coc(CN2CCc3ccccc32)cc1=O)NCCc1ccccc1	i	-1.1
93	O=C(NC1CCCCC1)C12CC3CC(CC(Cl)(C3)C1)C2	i	3.2
94	COC(=O)Cc1ccc(NC(=S)NNC(=O)c2ccccc2Br)cc1	i	-0.29
95	CCc1ccc2c(c1)cc(CN(C(=S)Nc1ccccc1)C1CC1)c1nnnn12	i	0.94
96	Clc1cccc(/C=N/N2CCN(Cc3ccccc3)CC2)c1	i	0.29
97	Cc1cccc(NC(=O)CSCC(=O)Nc2cc(S(=O)(=O)N3CCOCC3)ccc2OC(C)C)c1	i	-0.34
98	CCCn1c(C2CCCN2c2nc(-c3cccc(Br)c3)cs2)nc2cc(Cl)c(Cl)cc21 (stereo unspecified)	i	0.41
99	Cc1ccc(-c2nc(NC(=O)c3ccc(S(=O)(=O)N(CCC#N)CCC#N)cc3)sc2-c2ccccc2)cc1	i	1.2
100	CC1CCC(=C(C#N)C(=O)Nc2cccc(Cl)c2)CC1 (stereo unspecified)	i	0.4

Next compounds:
cpd	Compound	KCNQ2 inh	KCNQ2 inh baseline
101	Cc1ccc(-c2nnn(CC(=O)N(c3cccc(F)c3)C(C(=O)NC(C)(C)C)c3ccco3)n2)o1 (stereo unspecified)	i	0.83
102	C=CCNS(=O)(=O)CC12CCC(CC1=O)C2(C)C (stereo unspecified)	i	2.3
103	O=C(C[C@H]1C(=O)N(c2ccc(F)c(F)c2)C[C@@H]1Cc1ccccc1)Nc1ccccc1	i	-2.5
104	COc1ccccc1N1CCN(S(=O)(=O)CCNC(=O)c2cc(OC)c(OC)c(OC)c2)CC1	i	0.24
105	Nn1c(SCC(=O)Nc2ccc3c(c2)OCO3)nncc1=O	i	-1.2
106	CCCCn1c(N)c(N(CC(C)C)C(=O)COC(=O)Cc2cccc(OC)c2)c(=O)[nH]c1=O	i	1.4
107	CC(C)(C)C(=O)Nc1ccnn1C1CCN(C(=O)c2cccc(Cl)c2)CC1	i	0.4
108	O=C(/C=C/c1ccc(F)cc1)N1CCCc2ccccc21	i	1.8
109	S=C(Nc1ccccc1)Nc1nc2ccccc2n1CCOc1ccccc1	i	-0.62
110	c1ccc(CCSc2nccn2-c2ccccc2)cc1	i	1.1

Next structures:
cpd	Compound	KCNQ2 inh	KCNQ2 inh baseline
111	Cc1nc(-c2cc(C#N)c(=O)[nH]c2C)cs1	i	-0.01
112	CCn1cnc2cc(NCc3cccs3)ccc21	i	-0.23
113	COc1ccc(NS(=O)(=O)c2cc(NC(=O)c3cnccn3)ccc2N2CCCC2)cc1	i	0.05
114	Cc1nn(-c2ccccn2)c2nc(-c3cccs3)cc(C(=O)N3CCOCC3)c12	i	0.67
115	O=C(Nc1ccccc1-c1ccccc1)c1cc(C(F)(F)F)cc(C(F)(F)F)c1	i	-0.05
116	COc1ccc(C(NC(=O)c2cc(OC)ccc2OC)c2ccccc2)cc1 (stereo unspecified)	i	1
117	Cc1ccc(N2CCN(CC3CC=CCC3)CC2)cc1 (stereo unspecified)	i	-0.28

Source: PubChem
